Source: PubChem BioAssay
Vif TR-FRET: HIV-1 Vif–A3G interaction blockers – biochemical, TR-FRET, GST-Vif 1-94, biotin-A3G peptide, dose response retest, primary screen (AID 1117319); TR-FRET GST-Vif / biotin-A3G peptide binding; higher % means a stronger effect; test concentration not given here; strong numbers were not always called active; one-dose inhibition, %; IC50 in µM for titrated hits; 0.57% of 260,000 active;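 active means above the screen mean plus three standard deviations and confirmed in dose response; inconclusive means results disagree or hit not tested in dose response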;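 further: Vif residues 1-94 fused to GST binding biotinylated APOBEC3G peptide 110-148; 0% = full assay without inhibitor and 100% = GST in place of GST-Vif; retest series ran down from 100 µM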
Calb FLC: C. albicans growth modulation with fluconazole; 0.57% of 300,000 active; AID 1979; C. albicans CaCi-2 (fluconazole-resistant clinical isolate) + fluconazole, Alamar Blue growth, 48 h; growth inhibition, % (no concentration beside the values);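 active means most replicates above 75%; inconclusive means exactly half above 75%; inactive means most below 75%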;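 further: all wells also contain fluconazole at 8 µg/ml as a sub-toxic cotreatment; 0% = median of DMSO wells and 100% = median of geldanamycin control wells; wells of about 8 µL received 7.5 nL stock; the first replicate is given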
Bfl-1 A1 inh: inhibitors of the anti-apoptotic protein A1, read as caspase activation | MEF A1-2A-BIM cells, Caspase-Glo 3/7 luminescence, 3 h; percent of clofoctol response, vehicle zero | caspase activation, % (test concentration not listed) | 0.066% of 330,000 active | AID 2462;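 active means over half of replicate activation scores above 10%, or exactly half above 10 with the replicate mean above 10; inconclusive means replicate mean below 10 yet half the replicates above 10; inactive means over half of replicates below 10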;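 further: wells of about 30 µL received 50 nL stock; many hits fall short of the cut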
AF4-AF9 inh: blocks AF4 peptide binding to human AF9 | P42568 | AlphaScreen, biotin-AF4 peptide binding to FLAG-AF9 | inhibition, % at 10 µM | 0.47% of 350,000 active | AID 651704;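 active means every replicate reaching a set inhibition limit, whatever the replicate mean, cut at about 25% in these data; inconclusive means mean inhibition reaches that limit but some replicates miss it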;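 further: 0% = plate neutral control median and 100% = total signal loss; the record names both 10 and 1 µM as test concentration; the first replicate is given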
Target sequence (P42568 whole entry, looked up): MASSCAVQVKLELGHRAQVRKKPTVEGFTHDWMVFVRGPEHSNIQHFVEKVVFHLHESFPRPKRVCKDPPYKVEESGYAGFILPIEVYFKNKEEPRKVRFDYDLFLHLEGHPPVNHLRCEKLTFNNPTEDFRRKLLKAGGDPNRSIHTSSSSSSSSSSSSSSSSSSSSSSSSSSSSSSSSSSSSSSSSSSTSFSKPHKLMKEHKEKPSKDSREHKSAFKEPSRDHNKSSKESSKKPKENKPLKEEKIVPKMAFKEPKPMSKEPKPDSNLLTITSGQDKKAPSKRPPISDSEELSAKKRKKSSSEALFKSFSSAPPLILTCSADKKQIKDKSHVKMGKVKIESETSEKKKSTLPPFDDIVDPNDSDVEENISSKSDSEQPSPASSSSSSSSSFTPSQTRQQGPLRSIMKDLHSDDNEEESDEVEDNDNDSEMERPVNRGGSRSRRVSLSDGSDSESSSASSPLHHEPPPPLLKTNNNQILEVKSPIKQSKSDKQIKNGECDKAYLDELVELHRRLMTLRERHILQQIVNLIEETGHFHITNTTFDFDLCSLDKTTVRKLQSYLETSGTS
Beta cell apopt: beta cell apoptosis inhibition | 0.8% of 300,000 active | INS-1E cytokine-induced death, ATP luminescence, 48 h; percent of positive-control rescue, neutral wells zero | protection from apoptosis, % (test concentration not listed) | AID 435005;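 active means all replicates at 75% or more, or half of them and the mean; inconclusive means half reach 75% but not the mean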;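 further: 0% = cytokine-treated negative control wells and 100% = positive control rescue; higher means more ATP so stronger rescue from cytokine killing; wells of about 40 µL received 100 nL stock; the first replicate is given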
rRNA inh HTS: selective bacterial rRNA inhibition in E. coli; AID 720706; E. coli WT GFP vs humanized-ribosome RFP mutants, fluorescence, 24 h; hits give low values; DMSO median 0, no signal -100; 1.6% of 350,000 active; GFP signal change (wild-type ribosome), % (test concentration not listed);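 active means significant combined selectivity score with lowered wild-type GFP, culture density cut under 30%, mutant RFP and density less affected; inactive means any of these conditions unmet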; further: one replicate is shown; some compounds called inactive have numbers as strong as hits
T cruzi inh: T. cruzi replication inhibition; T. cruzi beta-gal in NIH3T3, luminescence, 90 h; inhibition, % (no concentration beside the values); 1.4% of 300,000 active; AID 1885;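 active means mean inhibition across valid replicates above about 55%, limit read from the data; inconclusive means mean below that limit but half or more replicates reach it; inactive means mean below it, under half of replicates reach it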;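 further: signal also drops with host cell toxicity which is not excluded here; 0% = plate median of DMSO wells and 100% = zero luminescence signal; higher percent means less beta-gal luminescence so fewer parasites; stock transfer was 50 nL into about 50 µL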
RanGTP-Impb inh: disruptors of Ran-importin-beta complex formation – biochemical, FRET, CFP-Ran, YFP-importin-beta, homogeneous, primary screen; 1.1% of 300,000 active; cell-free CFP-Ran/YFP-importin-beta FRET ratio; AID 2216; inhibition, % (concentration not given with the values);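 active means most replicates above 15%; inconclusive means exactly half above 15%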;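 further: 0% = DMSO wells and 100% = Ran loaded with GDP instead of GTP; wells of about 40 µL received 100 nL stock; the first replicate is given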
rRNA inh HTS OD600: second read-out of rRNA inh HTS, no call of its own (marks repeat the call); OD600 change, %; measured here: OD600 growth;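 optical density of the mix in the first replicate; 0 = DMSO median and -100 = no signal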
rRNA inh HTS RFP: second read-out of rRNA inh HTS, no call of its own (marks repeat the call); RFP signal change, %; measured here: RFP humanized mutant strains;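 first replicate; 0 = DMSO median and -100 = no signal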
Numbers without * were called inactive; ? = inconclusive; . = no result given; & = joins results of further samples. Only part of the results is shown; rates above refer to the full screens.

SMILES	Vif TR-FRET	Calb FLC	Bfl-1 A1 inh	AF4-AF9 inh	Beta cell apopt	rRNA inh HTS	rRNA inh HTS OD600	rRNA inh HTS RFP	T cruzi inh	RanGTP-Impb inh
CCOC(=O)C(NC(=O)c1ccccc1F)(Nc1cc(C)on1)C(F)(F)F (centres undefined)	5%	-10	-0.8	.	-2	.	.	.	-17	-1.9
COc1ccc(C(=O)C[n+]2ccc(N)c(C)c2C)cc1	9%	-3	0.2	-0.6	.	18	19	1.1	15	26*
C=CCSc1nnc(COc2ccc(=O)n(-c3ccccc3)n2)n1CC	4%	1	0.3	-1.3	-10	10	11	-8.5	-13	3.3
Cc1cccc(COC(=O)Nc2ccc(NC(=O)c3ccccc3Cl)cc2)c1	.	8	1.5	-2.9	-15	24	25	-0.8	-1	-2.9
Cc1nnc(SCC2=C(C(=O)O)N3C(=O)C(NC(=O)C(C)n4nc(C(F)(F)F)cc4C)C3SC2)s1 (centres undefined)	19%	10	0.5	-5.3	-3	4	9	1.3	-5	0.8
CCCCn1c(N)c(N(CCOC)C(=O)c2c(CC)noc2C)c(=O)[nH]c1=O	-1%	.	0.3	-0.1	-5	8	5	-0.2	.	.
COc1ccc(NS(=O)(=O)c2csc(C(N)=O)c2)cc1OC	4%	3	0.2	-0.9	-1	9	17	-2.2	-10	1.9
COc1ccc(N(CC(=O)N2CCN(c3ccc(Cl)cc3)CC2)S(=O)(=O)c2c(C)n[nH]c2C)cc1	-2%	-10	0.4	-7.5	-6	-1	13	8.2	27	-1.6
Cc1ccccc1-c1nc(-c2ccccn2)no1	?	-1	-0.5	-7.2	44	-12	-22	-6.6	-20	.
Cc1ccc(CNC(=O)CNS(=O)(=O)c2ccc(Br)s2)cc1	13%	8	0.5	-0.5	-2	-1	8	-2.1	1	-1.4
COc1ccc(-c2cc(-c3nc4ccccn4c3NCc3ccccc3)ccc2OC)cc1	.	.	-1.8	16	125*	1	-4	16	.	.
CC1CCc2sc(C(=O)N3CCN(c4ncccn4)CC3)cc2C1 (centres undefined)	.	26	-0.2	-4.7	-9	-18	-25	-3.3	-9	3.0
Cc1ccc(C)c(S(=O)(=O)N(C)C2CCS(=O)(=O)C2)c1 (centres undefined)	.	-1	-0.5	-1.0	-5	16	12	-1.3	-7	-3.7
O=C(O)CCCC(=O)Nc1ccc(N2CCCC2)cc1	22%	0	-0.5	.	6	.	.	.	-10	2.5
COc1ccc(NC(=O)c2sc3nc(C)nc(N4CCN(c5ccccn5)CC4)c3c2C)cc1Cl	4%	-10	-0.3	-3.3	6	-3	20	1.6	19	-1.1
COc1ccc(NC(=O)CN(C)C(=O)c2cc(C3CC3)nn2-c2ccccc2)cc1	-4%	.	0.7	-4.5	-7	-22*	-11*	5.2*	.	.
Cc1cc2ccccc2c(=O)n1CC(=O)NCC(=O)N1CCCC(C)C1 (centres undefined)	20%	15	1.9	.	-6	.	.	.	-11	-1.7
O=c1[nH]n(-c2ccccn2)c(=O)c2ccccc12	-2%	8	-0.6	.	-9	.	.	.	-11	3.4
CC(=O)c1cnc2c(-c3ccccc3)c(-c3ccccc3)nn2c1C	.	3	0.3	-0.8	-2	21	9	5.6	22	4.9
COc1ccc(OC)c(NS(=O)(=O)c2ccc3c(c2)n(C)c(=O)n3C)c1	2%	-5	-1.1	.	-3	.	.	.	-1	5.4
CC1CCc2[nH]c3ccc(C(=O)NCCCOC(C)C)cc3c2C1 (centres undefined)	-5%	8	0.0	6.4	0	-32	-7	14	-10	22*
O=C(Nc1cccnc1)c1noc2c1CCCC2	4%	-4	.	.	.	.	.	.	-7	4.6
Cc1ccc2nc(/C(C#N)=C\c3ccc(N4CCCCC4)c([N+](=O)[O-])c3)[nH]c2c1	6%	4	0.0	.	12	.	.	.	72*	14
CCOc1ccc(C(C(=O)NCC2CCCO2)N(Cc2ccccc2)C(=O)c2snc(C(N)=O)c2N)cc1 (centres undefined)	.	-11	0.3	5.2	2	3	3	4.9	14	1.2
O=S(=O)(Nc1cc(S(=O)(=O)N2CCOCC2)ccc1O)c1ccc2c(c1)OCCCO2	-12%	.	-0.6	-3.6	-2	-1	4	-0.9	.	.
Cc1ccc(NC(=O)CCNS(=O)(=O)c2cc(Br)cnc2N)cc1Cl	5%	-18	0.6	.	4	.	.	.	17	-0.5
CO/N=C/NC(=O)c1cn(-c2ccc(F)cc2)c(=O)c2ccccc12	2%	36	0.4	.	-5	.	.	.	-5	-5.4
CCOc1ccc(C(=O)CN2C(=O)NC3(CCCCCC3)C2=O)cc1	-5%	-3	0.1	-34	0	0	-3	-0.6	2	8.4
Cc1cc(NC(=O)c2ocnc2C)no1	26%	4	0.3	.	3	.	.	.	1	-0.5
CC(C)(C)c1ccc(Oc2coc3cc(OCC(=O)O)ccc3c2=O)cc1	.	2	0.2	0.7	-1	6	9	1.0	2	5.7
Cc1ccc(S(=O)(=O)N2CCC(C(=O)NCCCN3CCCCCC3)CC2)cc1	2%	0	0.1	.	-4	.	.	.	10	4.1
Cc1ccccc1OCC(O)Cn1c(N2CCN(c3ccccc3)CC2)nc2c1c(=O)[nH]c(=O)n2C (centres undefined)	18%	-2	0.5	1.4	-4	7	8	11	-10	?
Oc1ccc(N=C/C=C/c2ccc(Br)cc2)cc1-c1nc2ccccc2s1	31%	9	-1.3	.	-3	.	.	.	-25	38*
O=C(CSc1nc(-c2ccco2)cc(C(F)(F)F)n1)N1CCN(Cc2ccccc2)CC1	-5%	-8	-0.1	-9.8	0	-44	-65	-1.2	19	4.6
COc1cc(/C=N/NC(=O)c2ccc([N+](=O)[O-])cc2Cl)cc(Br)c1O	.	7	-0.1	.	6	.	.	.	0	1.2
COCCNC(=O)CN(C(=O)CCC(=O)Nc1ccccn1)c1ccc(OC)cc1	.	11	0.7	-0.5	5	-3	-1	-1.3	1	3.6
COC(=O)C1=C(C)n2nnnc2NC1c1ccc(Cl)cc1 (centres undefined)	1%	1	-0.2	.	-1	.	.	.	-1	-2.0
Nc1scn[n+]1Cc1cccc2cccnc12	.	-6	1.1	-0.6	-6	4	8	-3.5	-4	-3.5
Cn1c(Cn2c(=O)sc3ccccc32)nnc1SCC(=O)NC1CCCC1	30%	2	-0.1	0.0	0	9	9	-0.7	-4	4.1
Cc1cc(C)c(NC(=S)NC(=O)c2ccc(-c3ccccc3)cc2)c(C)c1	?	-1	0.0	-3.7	1	-16	-16	-12	-22	3.8
Cc1ccc(-c2cc(C(=O)N3CCN(c4ccccc4O)CC3)c3ccccc3n2)cc1	7%	7	-0.9	-0.8	6	-2	2	-1.7	25	-0.2
Cn1cccc1-c1nc2ccccc2[nH]1	2%	0	-2.7	4.5	2	8	3	1.4	-6	0.0
CCOc1cc(C(=O)N2CCN=C2SC)cc(OCC)c1OCC	0%	0	-0.9	.	-12	.	.	.	14	4.7
CCn1cc(CNC(=S)Nc2cccc(Cl)c2C)cn1	8%	-2	0.1	-0.7	2	-1	-5	-8.0	5	0.9
COc1ccc(-c2c/c(=N\c3nc(-c4ccccc4)c(C)s3)c3ccccc3o2)cc1O	2%	-3	1.0	.	28	.	.	.	-10	-7.9
COC(=O)c1cncc(C)c1	-1%	0	0.4	-2.0	0	6	8	-0.7	-8	-1.5
COc1cc(/C=N/Nc2nc(N3CCCC3)nc(N3CCCC3)n2)ccc1OCc1ccccc1F	5%	-2	0.5	2.9	4	.	.	.	40	0.2
Cn1c(=O)[nH]c(=O)c2c1[nH]c(=S)n2Cc1ccccc1	0%	1	1.2	-5.6	-6	4	11	1.0	-1	-3.2
O=C(CSc1nc2ccccc2nc1N1CCCCC1)Nc1ccc(F)cc1	.	-10	0.2	-260	-3	.	.	.	46	-1.2
CN(C)CC#CCC(O)(c1ccccc1)c1ccccc1	.	0	0.7	1.0	-4	.	.	.	46	-0.2
(next part)
SMILES	Vif TR-FRET	Calb FLC	Bfl-1 A1 inh	AF4-AF9 inh	Beta cell apopt	rRNA inh HTS	rRNA inh HTS OD600	rRNA inh HTS RFP	T cruzi inh	RanGTP-Impb inh
COc1ccc(C2=Nn3c(nnc3-c3cccnc3)SC2)cc1OC	-12%	?	0.5	.	8	.	.	.	-8	0.9
N#CCCn1cc(C(=O)Nc2ccccc2Br)c(-c2cc3ccccc3o2)n1	.	23	-0.2	.	-1	.	.	.	18	-1.5
COc1ccc(NC(=O)C2=NN(C3CCS(=O)(=O)C3)C(=O)CC2)cn1 (centres undefined)	-3%	-16	0.1	0.5	-2	24	9	0.2	-7	-1.7
COc1ccc(OC)c(NC(=O)CSc2nn3c(=O)c(C)nnc3s2)c1	.	-5	-0.1	-1.6	-7	16	17	2.9	2	5.2
CC(C)CNC(=O)C1CCN(c2ccc(S(=O)(=O)N3CCOCC3)cc2Cl)CC1	4%&-8%	-20	0.1	.	10	.	.	.	8	12
Nc1nc(SCc2nc(-c3ccccc3)no2)[nH]c(=O)c1-c1ccccc1	>100µM*	51	0.1	4.4	-5	-17	-9	-2.2	-7	-3.2
COc1ccccc1CN1CCCCC1C(=O)O (centres undefined)	-2%	-7	0.2	-0.8	.	10	13	-1.2	-3	-1.3
CSc1ccccc1C(=O)NCc1ccc(C)cc1	-1%	10	-0.7	-0.3	-1	3	7	-6.5	-9	0.2
Cc1ccc2nc(C3CCN(S(=O)(=O)c4ccc5ccccc5c4)CC3)[nH]c2c1	-1%	4	1.1	.	16	-29*	-20*	3.0*	30	1.3
Cc1ccc(NCc2nnc(SCC(=O)Nc3ncc(C)s3)n2Cc2ccco2)c(C)c1	22%	-3	-0.1	.	-7	.	.	.	0	1.9
Cc1c([N+](=O)[O-])c(N)nn1C	.	-3	-0.2	-1.5	-8	17	19	0.5	-1	-2.1
CCOC(=O)N1CCN(C(=O)CSc2ccc(-c3ccncc3)nn2)CC1	?	3	-0.8	-1.0	0	22	10	0.7	-14	2.7
CCOC(=O)c1cnc(-c2ccccc2)nc1Oc1ccc(Cl)cc1	6%	0	0.3	.	1	.	.	.	-18	1.5
Cc1ccc(C)c(S(=O)(=O)n2cnc3ccccc32)c1	4%	5	-0.7	.	0	16	10	0.6	-8	-1.3
CC(C)C(=O)NCC(c1ccc2c(c1)OCO2)N1CCOCC1 (centres undefined)	-1%	4	0.6	-1.4	-6	6	16	-1.2	-12	2.1
CC1(C)CC(=O)C(C=NCCN2CCN(C(=S)NC3CCCCC3)CC2)=C(O)C1	11%	-14	0.5	.	-7	.	.	.	1	0.2
Cc1ccc(NC2=NC(C(=O)Nc3ccc(C)c(C)c3)CC(=O)N2)cc1 (centres undefined)	-2%	9	1.3	.	1	.	.	.	5	0.7
O=C(Cn1cnc2cc([N+](=O)[O-])ccc2c1=O)Nc1cccc2ccccc12	?	-1	0.5	-23	1	8	4	-4.6	43	4.6
